Bm FixLJ act: activators of Burkholderia fixLJ two-component system, primary screen, B. multivorans, GFP reporter; B. multivorans fixK-promoter GFP reporter, 18 h; active compounds read high; z-score (no concentration beside the values); hit rate 0.3% among 29,000; AID 1918990, 2023;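 active = replicate mean overnight rise in green fluorescent reporter signal, 3 or more SD over negative controls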;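 also: score is relative to vehicle wells of the plate; 300 nL library stock went into each well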
An asterisk follows results filed as active. The list is partial, so the mix of outcomes need not match the whole.

SMILES	Bm FixLJ act
COc1ccc(OC)c(C(=O)c2c(N)c(-c3nc(-c4ccc(C)c(C)c4)cs3)c3ccccn23)c1	-0.37
Cc1nc2ccc(NC(=O)N3CCNC(=O)C3CCO)cc2nc1C (stereo unspecified)	0.87
CCOC(=O)c1c(-c2ccccc2)oc2ccc(OCc3ccccc3Br)cc12	-1.1
CCc1ccc(-n2nc3cc(C)c(NC(=O)c4cc(OC)cc(OC)c4)cc3n2)cc1	-1.6
Cc1cc(C)c2oc(C(=O)Nc3sc4c(c3C(=O)NCc3ccco3)CCCC4)cc(=O)c2c1	-2
COc1cc(CN2CC(c3ccccn3)C2)ccc1OCC(=O)N1CCOCC1	1
CCCOc1ccc(C2c3c(oc4ccccc4c3=O)C(=O)N2c2nc(C)c(C(=O)OCC)s2)cc1 (stereo unspecified)	-1.1
Cc1ccc(C)c(OCCc2nnc(NC(=O)c3cc(C)nn3C)s2)c1	-1.7
Cc1cc(C)c(NC(=O)Cn2c(=O)n(Cc3ccc(C(=O)NCc4ccc5c(c4)OCO5)cc3)c(=O)c3ccccc32)c(C)c1	-1.4
COc1ccc(CNC(=O)C2CCN(Cc3nc(-c4ccc(OC)c(OC)c4)oc3C)CC2)cc1	-2
Cc1ccc(-c2nn3c(C)nnc3c3ccccc23)cc1S(=O)(=O)NCCO	-2
CCN(CCc1nc2ccc(C)cc2[nH]1)C(=O)c1cnc(C(C)C)nc1C	0.32
CCc1ccc(C(=O)Nc2ccc3nn(-c4ccc(C)c(Cl)c4)nc3c2)cc1	-2.6
CCOC(=O)c1ccc(NC(=O)CC2C(=O)N(c3cccc(OC)c3)C(=O)N2C2CCCCC2)cc1 (stereo unspecified)	-0.28
O=C(Nc1ccc(OC(F)(F)F)cc1)c1cc2c(=O)n3ccccc3nc2s1	0.61
O=C(Cc1cccs1)Nc1c(C(=O)Nc2ccc(F)cc2)oc2ccccc12	0.72
COCCc1noc(CNC(=O)c2ccc(-c3cnc(N)c(C)c3)cc2)n1	-0.29
CC(C)c1ccc(NC(=O)CNC(=O)Cn2ccc3ccccc3c2=O)cc1	-1.8
Cc1ccccc1OCC(=O)N1CCC2OCc3cnnn3C2C1 (stereo unspecified)	0.92
CCc1c(C)nn(CC(=O)N2CC3CCC(C2)N(CC2CCC2)C3=O)c1C (stereo unspecified)	-0.32
O=C(Nc1ccc2[nH]c(=O)c(=O)[nH]c2c1)c1cccc(F)c1	1.5
C#C[C@@H]1CC2C3CCC4=C[C@@H](OC(C)=O)CCC4C3CC[C@]2(C)[C@H]1OC(C)=O (stereo partly specified)	0.86
CN(N=O)C(=O)N[C@@H]1[C@@H](O)[C@H](O)[C@@H](CO)O[C@@H]1O	-0.75
Cc1ccccc1C(=O)Nc1cc2c(cc1N1CCOCC1)n(C)c(=O)n2C	0.07
O=C(Nc1ccc(F)cc1F)c1cc2c(=O)n3ccccc3nc2s1	-0.08
COc1cccc2c1OCC(NS(=O)(=O)c1ccc(-c3cc(C)no3)o1)C2 (stereo unspecified)	-1.2
CC(C)CNC(=O)CCSc1nc(-c2ccc3c(c2)OCO3)cc(C(F)(F)F)n1	-2.3
Cc1nc2c(-c3ccccc3)c(C)nn2c(C)c1CCC(=O)NCc1ccc(Cl)cc1	-1.1
Cc1ccc(C)c(NC(=O)Cn2c(-c3nonc3N)nc3ccccc32)c1	-1.3
Cc1nc2nc(C)c(NS(=O)(=O)c3ccc(F)cc3)c(=O)n2[nH]1	-0.85
N#C/C(=C\c1ccc(Cl)cc1)c1nc(-c2cc3ccccc3oc2=O)cs1	-0.85
CN(Cc1ccccc1)S(=O)(=O)c1ccc(NC(=O)c2cc(=O)c3ccccc3o2)cc1	0.23
Cc1cc(C)n2c(Nc3ccccc3)c(-c3ccccc3)nc2n1	-0.64
CCOc1ccc(OCC)c(NC(=O)CN(c2ccc(C)cc2)S(=O)(=O)c2c(C)n[nH]c2C)c1	0.93
CCSc1ncc(Cl)c(C(=O)Nc2sc3c(c2C(=O)NCCCOC)CCCC3)n1	-5.7
CCOC(=O)Cn1c(=O)oc2cc(S(=O)(=O)Nc3ccccc3F)ccc21	-0.23
COc1ccccc1CNC(=O)CSc1cc(=O)n(C)c2ccccc12	-0.58
CC(C)(O)C#Cc1ccc(C(=O)NCc2cn[nH]c2-c2ccc(F)cc2)o1	-1
O=C(Cn1ncc2c3ccccc3n(Cc3ccc(F)cc3)c2c1=O)NCc1ccccn1	-1.1
CC(C)c1cc(C(=O)N2CCC(Nc3ncccn3)C(O)C2)no1 (stereo unspecified)	-0.93

Among those listed so far, 4 contain a Cl atom.
SMILES	Bm FixLJ act
CCc1ccc(C(=O)Nc2ccc3nn(-c4ccc(C)c(Cl)c4)nc3c2)cc1	-2.6
Cc1nc2c(-c3ccccc3)c(C)nn2c(C)c1CCC(=O)NCc1ccc(Cl)cc1	-1.1
N#C/C(=C\c1ccc(Cl)cc1)c1nc(-c2cc3ccccc3oc2=O)cs1	-0.85
CCSc1ncc(Cl)c(C(=O)Nc2sc3c(c2C(=O)NCCCOC)CCCC3)n1	-5.7

Gathered by group: the compounds so far containing an aryl thioether with sulfur outside any ring (3)
SMILES	Bm FixLJ act
CC(C)CNC(=O)CCSc1nc(-c2ccc3c(c2)OCO3)cc(C(F)(F)F)n1	-2.3
CCSc1ncc(Cl)c(C(=O)Nc2sc3c(c2C(=O)NCCCOC)CCCC3)n1	-5.7
COc1ccccc1CNC(=O)CSc1cc(=O)n(C)c2ccccc12	-0.58

Next section
SMILES	Bm FixLJ act
Cc1c(NC(=O)c2ccc(Cl)cc2)cc(C(C)C)c(O)c1S(=O)(=O)c1ccccc1	-0.56
O=C(NCc1ccc(Cl)cc1)C(=O)Nc1ccc(Br)cc1	-1.1
CCN1CCN(CCCNC(=O)Cn2nc(C)n3c(cc4c(OC)cccc43)c2=O)CC1	-0.3
CCc1ccccc1NC(=O)CCc1c(C)nc2cc(-c3ccccc3)nn2c1C	-1.1
CCn1nc(C)c(C(C)NC(=O)CCCn2nnc(-c3ccc(F)cc3)n2)c1C (stereo unspecified)	0.53
COc1ccc2oc(=O)c(-c3csc(/C(C#N)=C/c4ccc(F)cc4)n3)cc2c1	-0.56
COCCNS(=O)(=O)c1cc(C(=O)O)cc(-c2cccc(CN)c2)c1	0.19
COc1ccc(OC)c(C(=O)N2Cc3cnc(C(C)(C)C)nc3C2)c1	-0.7
Cc1ccc(-c2nccn2-c2c(C)nn(C3CCS(=O)(=O)C3)c2C)cc1 (stereo unspecified)	-2.9
CCc1ccc(-n2c(=O)c3c4c(sc3n(CC(=O)NCCCOC)c2=O)CCCC4)cc1	-0.87
Cc1nc2ncnn2c(C)c1CCC(=O)NCc1ccccc1Cl	-0.63
CCOC(=O)c1cc2c(=O)n3ccccc3nc2n(CCCOC)c1=NC(=O)c1cc2ccccc2o1	-0.87
COc1ccc(CCNC(=O)c2ccc3c(c2)N(Cc2ccc(F)cc2)C(=O)c2ccccc2S3(=O)=O)cc1OC	1.1
CCn1c(CN(C)C)nnc1C1CCN(Cc2cccnc2)CC1	-0.91
COc1ccc(Br)cc1CNC(=O)c1cc2c(=O)n(C)c3ccccc3c2s1	-0.75
Cc1ccc(S(=O)(=O)NCc2nc3nc(C)cc(C)n3n2)c(C)c1	0.44
Cc1ccc(-c2nc(CS(=O)CC(=O)NCCc3ccc(Cl)cc3)c(C)o2)cc1 (stereo unspecified)	-1.8
O=C(c1ccccc1Cl)N1CCCCC1CCN1CCOCC1 (stereo unspecified)	-0.12
Cc1ccc(C)c(Cn2c(=O)n(CCCCCC(=O)NCc3ccc4c(c3)OCO4)c(=O)c3sccc32)c1	0.02
CCn1cc(C(=O)OCC(=O)Nc2cc(OC)cc(OC)c2)c(=O)c2ccc(C)nc21	-1.3
Cc1ccc2cccc(NC(=O)c3ccc(-c4cccc(Cl)c4Cl)o3)c2n1	-2.4
Cc1ccc(O)c(NC(=O)c2noc3c2CCCCC3)c1	-0.79
COC(=O)c1cc2oc3ccccc3c2n1CC(=O)Nc1ccc(C)c(F)c1	-1
COc1ccccc1C(=O)N1CCCCC1CCN1CCOCC1 (stereo unspecified)	-1.6
CNS(=O)(=O)c1ccc(NC(=O)c2nc3nc(C)cc(C(F)F)n3n2)cc1	0.89
COc1cccc(OC2CN(C(=O)CCC(=O)Nc3cccc(O)c3)C2)c1	-0.83
CCc1cc2c(cc3c(=O)n(CC(=O)NCCOC)nc(CC)n32)s1	-1.2
CCc1ccccc1NC(=O)c1cc2sc(Cl)cc2n1CC	0.84
COc1cc2ccccc2cc1C(=O)Nc1ccc2oc(-c3ccc(F)cc3Cl)nc2c1	-0.02
CCOCCNC(=O)N(C)C(c1ccc(OC)cc1)C(C)C (stereo unspecified)	-0.66
Cc1ccc(Cl)cc1NC(=O)c1sc2nc(C)c(C)c(C)c2c1N	-0.85
Cc1ccc(Cn2c(=O)n(Cc3ccccc3Cl)c(=O)c3ccccc32)cc1	1.3
Cc1cccc(N(Cc2cc3ccccc3[nH]c2=O)C(=O)c2cccc(Cl)c2)c1	-2.6
CCC(=O)N1CCc2cc(S(=O)(=O)CCC(=O)N3CCN(c4ccccc4F)CC3)ccc21	-1.6
Cc1ccc(NS(=O)(=O)c2ccc3c(c2)n(C)c(=O)n3C)cc1C	-1
Cc1ccc(-n2c(=O)c3ccc(C(=O)NCc4ccccc4Cl)cc3n(CC(=O)Nc3cccc(Cl)c3)c2=O)cc1	0.85
CCCCN(CCCC)C(=O)C1CCN(S(=O)(=O)c2cccc3nsnc23)CC1	-1.4
CCOC(=O)COc1cc(C)c(Cl)cc1C(=O)c1ccn2nc(-c3ccc(OC)cc3)cc2n1	-0.63
O=C(CCCn1c(=O)[nH]c2ccsc2c1=O)N1CCN(c2ccc(Cl)cc2)CC1	-1.1
Cc1cc(C)c2c(n1)SCC(=O)N2CC(=O)Nc1ccccc1C	0.15

Taken from above.
`COC(=O)c1cc2oc3ccccc3c2n1CC(=O)Nc1ccc(C)c(F)c1` in Bm FixLJ act is entered as -1
`Cc1ccc(Cl)cc1NC(=O)c1sc2nc(C)c(C)c(C)c2c1N` in Bm FixLJ act is entered as -0.85
`Cc1ccc(O)c(NC(=O)c2noc3c2CCCCC3)c1` in Bm FixLJ act is entered as -0.79

New compounds follow.
SMILES	Bm FixLJ act
CCOc1ccccc1-c1noc(CSc2nnc(-c3ccccc3)n2-c2ccc(F)cc2)n1	1.5
Cc1c(C(=O)N(Cc2ccccc2F)C2CCS(=O)(=O)C2)oc2ccc(F)cc12 (stereo unspecified)	0.21
Cc1ccccc1CNCCSc1nnnn1-c1ccccc1	0.62
CN(C)c1ccc(C(=O)N2CCC3(CC2)C(C(=O)O)CC(=O)N3C)cc1 (stereo unspecified)	0.11
CN(C)S(=O)(=O)c1ccc(C(=O)NCCSc2c(-c3ccc(Cl)cc3)[nH]c3ccccc23)cc1	0.04
CCOc1ccc(-n2c(=O)c3c4c(sc3n(Cc3cccc(Cl)c3)c2=O)CCCC4)cc1	0.62
CCc1ccc2oc(-c3ccc(NC(=O)c4ccc(OC)c(Br)c4)cc3)nc2c1	0.84
COc1ccc(C(=O)Oc2ccc(C(c3c(C)[nH][nH]c3=O)c3c(C)[nH][nH]c3=O)cc2OC)cc1	-1.2
CC(C)(C)C(Cn1ccnc1)NC(=O)C1CCN(C(=O)c2ccccn2)CC1 (stereo unspecified)	-1.5
O=c1c2sc3ccccc3c2n(Cc2cccc(F)c2)c(=O)n1CCc1ccccc1	-1.2
CC[C@@]1(O)CCCC2CN(C(=O)Cn3cc(C(=O)C4CC4)c4ccccc43)CC21 (stereo partly specified)	1.2
Cc1ccc(SCCN(C)C(=O)NCCCn2nc(C)nc2C)cc1	-2.2
Cc1cc(CC2CN(Cc3ccc(OCCc4ccccc4)cc3)CC2O)on1 (stereo unspecified)	-0.09
CCOc1ccc(C(CC(=O)O)N2Cc3ccccc3C2=O)cc1OC (stereo unspecified)	-0.65
Cc1ccc(-c2cn3ccc(C)cc3n2)cc1	-2.5
CCc1noc(CCNC(=O)Nc2ccc(C(=O)N3CCCC(C)C3)cc2)n1 (stereo unspecified)	-0.95
Cc1noc(-c2ccnc(NC3CCCN(C(=O)c4ccccc4)C3)c2)n1 (stereo unspecified)	0.61
CN1CCc2[nH]cnc2C12CCN(C(=O)c1cccc(OC(F)F)c1)CC2	-0.77
CCCN1CCN(C(=O)Cn2ncc3c4ccccc4n(Cc4cccc(Cl)c4)c3c2=O)CC1	14*
CCc1ccccc1NC(=O)N1CCCN(C(=O)c2cscn2)CC1	-0.75
O=C(NCCc1ccc(Cl)cc1)c1ccc2c(c1)N(Cc1ccc(F)cc1Cl)C(=O)CS2	-2.5
C[C@]12CCC(=O)C(O)=C1CC[C@@H]1[C@@H]2CC[C@]2(C)C(=O)CC[C@@H]12	-0.92
COCc1noc(CN2CC(O)C(Cc3ccnc4ccccc34)C2)n1 (stereo unspecified)	-2.5
Cc1cccc(-n2c(-c3ccco3)nc3c(cnn3-c3ccccc3C)c2=O)c1	-0.77
Cc1noc(C)c1CCC(=O)NCCCc1csc(N)n1	-0.42
Cc1noc2ncnc(N3CCC(N4CCCC(C(=O)NC5CC5)C4)CC3)c12 (stereo unspecified)	0.7
Cc1cccc(C)c1Nc1c(-c2ccccn2)nc2ccc(Cl)cn12	0.89
CSc1ncc(C(=O)N(C)C(C)Cc2cnccn2)cn1 (stereo unspecified)	0.19
C[C@@H]1C[C@@H]([C@H](O)CC2CC(=O)NC(=O)C2)C(=O)[C@@H](C)C1	-1.6
O=C(c1cccnc1)N1CCC(c2ccc3ccccc3c2)C(O)C1 (stereo unspecified)	-3.2
Cc1cccc(N2CCN(C(=O)Nc3ccc(F)cc3)CC2C)c1 (stereo unspecified)	-3
Cc1ccc(Cl)cc1N1CCN(c2nc3ccccc3c3nc(-c4cccnc4)nn23)CC1	-0.7
Cc1c(NS(=O)(=O)c2ccccc2)cc(C(C)C)c(O)c1S(=O)(=O)c1ccc(Cl)cc1	1.4
CCn1ncnc1-c1c(-c2ccccc2)ncn1CCc1nn[nH]n1	-0.33
CC1=C(C(=O)Nc2ccc(C)cc2C)C(c2ccc(Cl)cc2)n2nc(C(=O)OC(C)C)nc2N1 (stereo unspecified)	-2.9
CCCC(=O)Oc1c(Sc2ccc(C)cc2)c(C)nn1-c1ccccc1	-0.27

Retrieved one by one from the list above:
SMILES	Bm FixLJ act
Cc1cccc(-n2c(-c3ccco3)nc3c(cnn3-c3ccccc3C)c2=O)c1	-0.77
CSc1ncc(C(=O)N(C)C(C)Cc2cnccn2)cn1 (stereo unspecified)	0.19

Bioassay records from PubChem.
